Assay outcomes deposited in PubChem by National Center for Advancing Translational Sciences (NCATS).
2A StopGo: High Throughput Screening for Foot and Mouth Disease Virus Antivirals; human cells with a luciferase reporter of 2A StopGo recoding; control for the full effect not named in the record; Potency, µM (doses to about 57.9 µM), inactives show at the top dose signal change, negative = less light; actives 1.2% (n = 410,000); active = well fitted falling curve with a large enough effect; inconclusive = small, poorly fitted or top-dose-only effect; inactive = no such curve, though single readings can be large or run the other way; tested in HEK293T cells; also: nearly all actives have a fitted effect of over 45% in size; luciferase light after 4 h
RE007 growth inh: qHTS Assay for Inhibitors of the HIV-1 protein Vpr | S. pombe RE007 Vpr strain, BacTiter-Glo ATP luminescence, 24 h; control for the full effect not named in the record | Potency, µM (top dose mostly 92.2 µM), for the others: at the highest dose activity change, negative = less growth | actives 0.21% (n = 360,000); active = well fitted falling curve with a large enough effect; inconclusive = small, poorly fitted or top-dose-only effect; inactive = no such curve, though single readings can be large or run the other way;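 also: nearly all actives have a fitted effect of over 50% in size; the assay follows cell death caused by Vpr and the record does not say whether a fall means rescue or toxicity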
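Fission yeast strain RE007, carrying one chromosomally integrated HIV-1 vpr copy, was seeded at OD 0.01 in PMG+AL medium with 23 nL pinned compound. After 24 h at 30 °C and 99% humidity, viability was read by BacTiter-Glo luminescence.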
Starred values were filed as active, the others as inactive; ? = inconclusive; [ ] = another dose, or the depositor's remark. % is scaled to controls: 0 for no effect and ±100 for the full control effect; potency is read from the fitted curve at half-maximal effect. A portion of the library (hit frequency here may not be typical).

smiles | 2A StopGo | RE007 growth inh
CCOc1ccc(CCN2C(=O)C(=O)N([C@@H](CC(C)C)CN3CCC[C@H]3CN3C(=O)C(=O)NC[C@@H]3Cc3ccccc3)C[C@@H]2Cc2ccccc2)cc1 | ? | 6%
COc1cc(/C=C/C(=O)Nc2ccc(S(=O)(=O)Nc3onc(C)c3C)cc2)cc(OC)c1OC | -13% | 4%
O=C(Nc1ccc(Cl)cc1)c1csc([C@H]2C[C@H](O)[C@@H](CO)O2)n1 | -1% | -1%
CC[C@H]1CN2CCC1C[C@H]2[C@H](O)c1ccnc2ccc(OC)cc12 (stereo partly drawn) | -26% | -4%[18.4 µM]
COc1ccccc1NC(=O)N(C)C[C@@H]1Oc2ncc(Br)cc2C(=O)N([C@H](C)CO)C[C@@H]1C | 0% | 3%
CCCCn1nnnc1C(c1cc2ccccc2o1)N(C)CCc1ccccc1 (stereo not drawn) | 3% | -8%
CC1=C(C(=O)N(C)C)CC(CC(=O)NCCCCc2ccccc2)C(=O)N1CCC1=CCCCC1 (stereo not drawn) | -18% | 13%
CC(C)(C)n1nnnc1C(c1cc2ccccc2o1)N1CCOCC1 (stereo not drawn) | -9% | 12%
COc1ccc(OCCN2CCC(C(=O)NC(c3ccc(Cl)cc3)c3cnccn3)CC2)cc1 (stereo not drawn) | -3% | 0%[18.4 µM]
COc1ccc(-c2cc3nc(NCCCN(C)C)n(C)c(=O)c3s2)cc1OC | -11% | -19%[18.4 µM]
CCOC(=O)C1=CCN(S(=O)(=O)c2ccc(C)cc2)[C@H]1c1ccccc1Cl | -27% | 8%
C[C@H]1CN([C@@H](C)CO)C(=O)CCCn2nncc2CO[C@@H]1CN(C)C(=O)Nc1ccnc(N2CCOCC2)c1 | ? | 25%
O=C(NCc1ccc(OC(F)(F)F)cc1)c1ccc2c(c1)S(=O)(=O)c1ccccc1C2=O | -15% | -7%
CCCCNC(=O)c1nc(C2CCN(S(=O)(=O)c3cccc(C(F)(F)F)c3)CC2)oc1-c1cccc(C(F)(F)F)c1 | -15% | 2%
O=C1OC(c2ccccc2)=CC1=Cc1ccccc1O | 73%[activator] | 5%
CC1(C)OC(=O)C2=C(C[C@@H](CCc3ccccc3)O[C@@H]2c2ccc(F)cc2)O1 | -29% | -8%
COc1ccccc1-c1cc(NC(C)=O)c2ncc(-c3ccccc3)n2c1 | ? | 10%[18.4 µM]
CC1=C(C(=O)N2CCCCCC2)CC(CC(=O)NCCN2CCOCC2)C(=O)N1Cc1ccc(C(C)(C)C)cc1 (stereo not drawn) | -25% | 7%
COC(=O)c1ccc2nc(-c3ccc(F)cc3)c(Cc3ccccc3C(F)(F)F)n2c1 | -22% | -9%
CC(C)C[C@H]1CNC(=O)C(=O)N1C[C@@H]1CCCN1C[C@H](Cc1ccc(O)cc1)N1C[C@H](Cc2ccccc2)N(CC2CCCCC2)C(=O)C1=O | 64%[activator] | 3%
O=C(Nc1cccc(C(=O)N2CCCC2)c1)C1CCC1 | -6% | 8%
Cc1ccc(F)c(S(=O)(=O)NC(=O)C2(C)CCN2C(=O)CCc2ccccc2)c1 (stereo not drawn) | 0% | 16%
CCc1nc2c(OCc3ccc(Cl)cc3Cl)cccn2c1N(C)C(=O)c1ccccc1F | -15% | -27%
COC(=O)C1=C(COc2ccccc2)NC(=O)NC1c1ccc2ccccc2c1 (stereo not drawn) | -21% | 4%
C[C@@H]1CCCCO[C@@H](CN(C)C(=O)Cc2ccccc2)[C@@H](C)CN([C@H](C)CO)C(=O)c2cc(NC(=O)C3CCCCC3)ccc2O1 | -10% | 13%
Cc1ccccc1C(NC(=O)C1CCN(Cc2ccc(Oc3ccccc3)cc2)CC1)c1ccsc1 (stereo not drawn) | 0% | ?
C[C@@H]1CN([C@@H](C)CO)C(=O)CCCn2nncc2CO[C@@H]1CN(C)S(=O)(=O)c1cn(C)cn1 | 1% | -10%
COc1ccc(CC(N)c2csc(NC(=O)Nc3ccccc3-c3ccccc3)n2)cc1 (stereo not drawn) | -7% | -3%
O=[N+]([O-])c1ccc(C=Nc2ccccc2)cc1 | -13% | 6%[18.4 µM]
CCCCNC(=O)C1(C)CCN1C(=O)CSc1ccccc1 (stereo not drawn) | -11% | -5%[18.4 µM]
NNc1nc(-c2ccccc2)nc(-c2ccccc2)c1Br | -7% | -8%
CCc1nc2ccc(C(=O)NCCOc3ccc(OC)cc3)cn2c1N(C)Cc1ccc(N(C)C)cc1 | -17% | -6%
O=C(c1cc([N+](=O)[O-])ccc1N1CCOCC1)N1CCN(S(=O)(=O)c2ccc(F)cc2)CC1 | -13% | 7%
COC(=O)C[C@@H]1C=C[C@H](NC(=O)c2ccccc2)[C@@H](CO)O1 | -19% | 11%
CC#CCN1c2ccccc2[C@]23C[C@@H](C(=O)OC)N(C(=O)c4ccc(Br)cc4)C2=NC(C(=O)OC)=C(C(=O)OC)[C@H]13 | -23% | 0%
CCOC(=O)c1ccccc1NC(=O)CSc1nc2c(sc(=S)n2CC)c(=O)[nH]1 | -17% | -8%
COc1ccc(CNS(=O)(=O)CCNCc2ccccc2OC)cc1 | -12% | 2%
OC(Cc1cccc(Br)c1)c1ncc(-c2cccc(C(F)(F)F)c2)[nH]1 (stereo not drawn) | -6% | -21%[18.4 µM]
COc1ccc(Cc2c(C3CCCCC3)nc3c(C)cc(Br)cn23)c(C)c1 | -15% | ?
O=C1c2ccccc2C(=O)N1CCCn1c2ccc(Cl)cc2c2nc3ccccc3nc21 | -2% | -19%
CCCCn1c(N)c(N(CC(C)C)C(=O)CC(NC(=O)c2ccccc2Cl)c2ccccc2)c(=O)[nH]c1=O (stereo not drawn) | -5% | 0%
Cc1c(NC(=O)COC(=O)/C=C/c2cccc(F)c2)c(=O)n(-c2ccccc2)n1C | 0% | 22%
C[C@H](c1ccccc1)N1C[C@@H](COCc2ccccc2)Oc2cc(N3CCC[C@H]3CO)ccc2S1(=O)=O | 27% | 22%
COC(=O)c1cnc(Nc2nc(C(N)Cc3ccc(OC)cc3)cs2)nc1C(F)(F)F (stereo not drawn) | 0% | -7%
CCCS(=O)(=O)NC(=O)C1(C)CCN(C(=O)c2ccccc2OC)C1 (stereo not drawn) | 2% | 9%
CCCCn1nnnc1C1(C)CCC(=O)N1CCCn1ccnc1 (stereo not drawn) | -26% | 14%
Cc1ccc(NC(=O)CCC(=O)NN=Cc2ccc(C)o2)c(C)c1 | 0% | 3%
O=C1NC[C@H](Cc2ccccc2)N(CC2CCN(CCCCc3ccccc3)CC2)C1=O | -17% | -8%
CCNC(=O)c1cc2c(c(-c3cccc(-c4cccc(C(=O)N(C)C)c4)c3)n1)[C@H](CCO)N(S(=O)C(C)(C)C)C2 (stereo partly drawn) | -23% | -3%
COc1ccc(C=C2SC(=S)N(CCCC(=O)Nc3ccc(C(=O)O)c(O)c3)C2=O)cc1OC | -21% | 10%
O=C(NCCc1c[nH]c2ccccc12)c1[nH]c(C(F)(F)F)nc1-c1ccccc1 | -5% | -20%
COc1ccc(S(=O)(=O)N2CCC3CC2c2cc(-c4ccc5c(c4)OCO5)ccc23)cc1 (stereo not drawn) | -23% | 4%
CC(C(=O)NC1CCCC1)n1c(C2CCCC2)nc2ccccc21 (stereo not drawn) | -8% | -18%
CCc1ccc2cc3c(cc2n1)C(=O)c1ccccc1-3 | 13% | -24%
CC(OC(=O)C1=COCCO1)C(=O)NC1CCCCC1 (stereo not drawn) | -6% | 9%
CCOC(=O)C1=CCC(c2ccc(CC)cc2)N(S(=O)(=O)c2ccc(C)cc2)C1 (stereo not drawn) | 17% | 14%
COc1ccccc1C=C(C(=O)c1ccccc1)c1ccccc1 | -10% | 26%[18.4 µM]
COc1ccc(C(=O)C(=O)N2CCN(C(=O)OCc3ccccc3)CC2)cc1 | -13% | -1%
COCCCN1C(=O)C(CC(=O)NCCCN(C)C)CC(C(=O)N2CCOCC2)=C1C (stereo not drawn) | -14% | -10%
O=C(OCc1cn([C@@H]2C[C@H](c3ccc(Cl)cc3)N(C(=O)C3CCCCC3)C[C@H]2O)nn1)c1ccccc1 | -25% | 8%

Some values from the results shown.
CCCCn1nnnc1C1(C)CCC(=O)N1CCCn1ccnc1 (stereo not drawn) – 2A StopGo: -26%
COc1ccc(C=C2SC(=S)N(CCCC(=O)Nc3ccc(C(=O)O)c(O)c3)C2=O)cc1OC – RE007 growth inh: 10%
CC(C(=O)NC1CCCC1)n1c(C2CCCC2)nc2ccccc21 (stereo not drawn) – RE007 growth inh: -18%

Arranged by SMILES length (rising): part of the list above
smiles | 2A StopGo | RE007 growth inh
CCc1ccc2cc3c(cc2n1)C(=O)c1ccccc1-3 | 13% | -24%
CCCCn1nnnc1C1(C)CCC(=O)N1CCCn1ccnc1 (stereo not drawn) | -26% | 14%
O=C1NC[C@H](Cc2ccccc2)N(CC2CCN(CCCCc3ccccc3)CC2)C1=O | -17% | -8%
CCNC(=O)c1cc2c(c(-c3cccc(-c4cccc(C(=O)N(C)C)c4)c3)n1)[C@H](CCO)N(S(=O)C(C)(C)C)C2 (stereo partly drawn) | -23% | -3%

Further records follow.
Structure,2A StopGo,RE007 growth inh
O=C(NCC(F)(F)F)c1csc([C@@H]2O[C@H](CO)[C@H](O)[C@H](O)[C@H]2O)n1,-10%,-3%[18.4 µM]
COc1ccccc1NC(=O)N(C)C[C@H]1Oc2cc(Br)ccc2S(=O)(=O)N([C@H](C)CO)C[C@H]1C,39%[activator],-5%
CCCCCCCCN1[C@@H](CC(=O)OCC)c2cc(C(F)(F)F)ccc2S1(=O)=O,?,7%
COc1cc(NCCCn2cnc3c(OC)ncnc32)cc(OC)c1OC,-9%,10%
CCn1cc(CN2CCCC(C(=O)c3cccc(C(F)(F)F)c3)C2)cn1 (stereo not drawn),-15%,-3%
CN(C(=O)c1cccc(NC(=O)Cc2ccc(NC(=O)C3CCCN(C(=O)C4CC4)C3)cc2)c1)C1CCCC1 (stereo not drawn),-18%,7%
Cc1cc(-c2ccccc2)nc2c(Br)c(C(=O)O)nn12,-5%,4%
OCc1ccccc1-c1cnc2cccnn12,-17%,-3%
COc1c(Cl)c(=O)oc2ccc(Cl)cc12,-1%,9%
O=C(NCc1ccccc1)C1C(c2ccc3c(c2)OCO3)=Nc2ccccc2N1C(=O)c1cccc(C(F)(F)F)c1 (stereo not drawn),2%,-4%
CN(C(=O)c1cccc(NC(=O)Cc2ccc(NC(=O)C3CCCN(C(=O)C4CCCC4)C3)cc2)c1)C1CCC1 (stereo not drawn),-25%,-1%
CC(/C=N/NC(=O)c1nnn(-c2nonc2N)c1CN1CCCCC1)c1ccccc1 (stereo not drawn),0%,-5%
CCNC(=O)C1(C)CCCN(Cc2csc(-c3ccc(Cl)cc3)n2)C1 (stereo not drawn),-19%,-15%
Cc1ccc(CN2C(=O)c3ccccc3C2c2nnnn2-c2c(C)cccc2C)cc1 (stereo not drawn),11%,8%
COC(=O)c1ccc2nc(-c3ccc(F)cc3)c(Cc3cccc(Cl)c3)n2c1,-29%,10%
CC1(C(=O)NCc2ccccc2)CN(S(C)(=O)=O)CC(=O)N1C1CCN(Cc2ccccc2)CC1 (stereo not drawn),23%,-17%
C=C1CC2C(=O)N(Cc3cc(OC)ccc3OC)C(C(=O)OCC)(C(=O)OCC)C1N2C(=O)OC(C)(C)C (stereo not drawn),0%,-6%
CC(=O)c1ccc(OCc2nnn(CC(=O)NS(=O)(=O)Cc3ccccc3)c2-c2ccccc2)cc1,-17%,-3%
CCN(C(=O)COC(=O)Cn1c(=O)oc2ccccc21)c1c(N)n(Cc2ccccc2)c(=O)[nH]c1=O,-7%,-15%
CCN(C(=O)CN1C(=O)NC2(CCC(C)CC2)C1=O)C1CCCCC1 (stereo not drawn),-19%,6%
CCCS(=O)(=O)NC(=O)C1(C)CCCN(C(=O)c2ccc3ccccc3n2)C1 (stereo not drawn),-5%,24%
CCOC(=O)N1CCN(C(=O)C[C@@H]2C[C@@]3(C(=O)OC)CC(C)(C)CC=C3N(CCc3ccc(OC)c(OC)c3)C2=O)CC1,0%,0%
CC1(C(=O)NS(=O)(=O)c2cccc(OC(F)F)c2)CCN1C(=O)Cc1ccsc1 (stereo not drawn),-15%,6%
O=C1CCC[C@@H]2C[C@@]3(C[C@@H]4CCN1[C@H]24)Nc1cc([N+](=O)[O-])ccc1NC3=NC1CCCCC1,-22%,-26%
O=C(Nc1ccccc1)Nc1nnc([C@@H]2C[C@H](O)[C@@H](CO)O2)s1,24%,11%[18.4 µM]
OC[C@H]1O[C@H](c2nc(-c3nc(-c4cccc(-n5cccc5)c4)no3)cs2)C[C@@H]1O,-35%,-2%
COC(=O)C[C@H]1CC[C@@H](NC(=O)c2ccncc2)[C@@H](CO)O1,-12%,1%
CCC(=O)N1CCCC(C(=O)NS(=O)(=O)c2cc(C)c(Cl)cc2C)CC1 (stereo not drawn),-1%,7%
Cc1cccc(C)c1N1C(=O)c2ccccc2NC(=O)C1C(=O)Nc1ccc2c(c1)OCCO2 (stereo not drawn),-9%,2%
COCCN(C(=O)COC(=O)C1CC(=O)N(c2ccc(C)cc2)C1)c1c(N)n(Cc2ccccc2)c(=O)[nH]c1=O (stereo not drawn),-4%,3%
